Screening data as filed in PubChem.
YopH inh: inhibitors of Yersinia enterocolitica YopH tyrosine phosphatase | AID 898 | inhibition, %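 (about 10 µM by stock and volumes)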 | 0.16% of 140,000 active | fluorescence Ex485/Em525;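 active = inhibition of 50% or more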;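 note: controls were vehicle for no effect and minimum signal wells for full effect; inactives centre near -20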
RecA splice inh: Mtb RecA intein splicing inhibition | inhibition, %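 (about 9 µM by stock and volumes)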 | 0.75% of 290,000 active | P9WHJ3 | cell-free RecA intein splicing, fluorescence | AID 2221; in the data active = inhibition above about 30%; inconclusive = no clear call, values can overlap the other calls;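 note: 0% = vehicle wells and 100% = reference inhibitor control wells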
Target sequence (P9WHJ3 whole entry, looked up, canonical isoform): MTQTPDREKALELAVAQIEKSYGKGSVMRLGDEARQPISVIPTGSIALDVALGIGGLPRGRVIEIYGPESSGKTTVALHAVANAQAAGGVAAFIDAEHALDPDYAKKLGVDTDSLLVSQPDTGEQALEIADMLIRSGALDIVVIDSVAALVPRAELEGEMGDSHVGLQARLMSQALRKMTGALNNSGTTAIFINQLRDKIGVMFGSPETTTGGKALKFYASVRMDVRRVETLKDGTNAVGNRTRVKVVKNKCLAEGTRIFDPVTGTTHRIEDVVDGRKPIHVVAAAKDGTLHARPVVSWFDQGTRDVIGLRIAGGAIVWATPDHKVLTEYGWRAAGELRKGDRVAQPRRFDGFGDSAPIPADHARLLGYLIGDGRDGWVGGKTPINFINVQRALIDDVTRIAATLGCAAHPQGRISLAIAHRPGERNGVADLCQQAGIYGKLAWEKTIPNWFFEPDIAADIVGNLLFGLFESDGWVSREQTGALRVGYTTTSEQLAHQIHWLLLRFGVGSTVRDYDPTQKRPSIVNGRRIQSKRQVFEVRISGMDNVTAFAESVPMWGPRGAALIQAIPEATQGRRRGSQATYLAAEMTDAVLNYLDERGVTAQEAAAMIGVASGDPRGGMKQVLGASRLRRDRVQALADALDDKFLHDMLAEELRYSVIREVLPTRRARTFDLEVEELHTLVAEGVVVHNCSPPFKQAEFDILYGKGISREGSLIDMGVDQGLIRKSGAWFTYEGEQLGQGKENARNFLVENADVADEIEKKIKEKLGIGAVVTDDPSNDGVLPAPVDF
Arbovirus anti: arbovirus infection inhibition | arbovirus infection cell-based antiviral screen | inhibition, % at 10 µM | 0.37% of 200,000 active | AID 1251;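 active = inhibition from about 30%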;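 note: bluetongue infection of BSR cells; cell survival read as ATP light after 72 h; 0% = infected wells without compound and 100% = uninfected wells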
Mtb H37Rv: M. tuberculosis H37Rv growth inhibitors, H37Rv strain (AID 1626). M. tuberculosis H37Rv growth inhibition; higher % means a stronger effect. one-dose inhibition, % at 10 µM; IC50 in µM for titrated hits. 0.95% of 220,000 active;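 active = confirmed in a dose series; inconclusive = inhibition above 80% but not taken into the dose series; inactive = below 80% or under 30% at every dose of the series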;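 note: bacteria incubated seven days before Alamar blue readout; 0% = bacteria only wells and 100% = bacteria with antibiotic wells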
Mtb bLac sens: beta-lactam sensitization of Mtb H37Rv | M. tuberculosis H37Rv growth with meropenem, percent inhibition; hits of this screen are not shown here | inhibition, % at 25 µM | 0.27% of 330,000 active | AID 434955;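 active = about 74% or more and at least 40 points above the plate without the antibiotic, then above 30% in a dose series; inconclusive = first-round hits that could not be retested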;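 note: growth measured after seven days incubation then overnight dye step; 0% = bacteria only wells and 100% = bacteria with antibiotic; twin plates without the antibiotic show which effects depend on it; some results filed as inactive read as strong as hits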
Arbovirus anti repeat: recorded beside Arbovirus anti, whose call it bears; inhibition, %; measured here: 10K subset replicate screen; many hits read low in the repeat;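 first of two repeat runs on a subset; 0% = infected and 100% = uninfected wells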
* = called active by the depositor; ? = inconclusive; . = not tested or not shown.

SMILES	YopH inh	RecA splice inh	Arbovirus anti	Mtb H37Rv	Mtb bLac sens	others
COc1cc(CN2CCC(CO)(Cc3cccc(C(F)(F)F)c3)CC2)ccc1F	.	1.2	.	5%	8
O=C(CCC(=O)Nc1ccc(F)cc1)N/N=C/c1cccs1	.	0.0	.	.	-9
Cc1cc(NC(=O)c2cc(-c3ccccc3)on2)no1	8	0.0	-1	-4%	-1
CCc1cccc(C)c1NC(=O)CCCSc1nc2ccccc2s1	-38	-2.0	1	12%	5
CCN1CCN(Cc2nc3ccc([N+](=O)[O-])cc3c(=O)n2-c2ccccc2F)CC1	.	-2.5	.	.	-5
COc1ccc(N=C2C(=O)Nc3ccccc32)cc1	33	7.9	-18	>100µM*	.
O=C(NCCN1CCOCC1)C1CCN(S(=O)(=O)N2CCCC2)CC1	.	0.5	3	-2%	3
NS(=O)(=O)c1ccc(CNS(=O)(=O)c2ccc3ccccc3c2)cc1	.	0.5	.	.	3
COc1ccc(-c2cc(C(F)(F)F)nc(SCC(=O)NCc3cccs3)n2)cc1OC	-4	0.7	-17	0%	4
Nc1nc(SCc2ccccc2Cl)ns1	-22	0.8	-12	48%	95
COc1ccc(N=C(C)c2c(O)n(C)c(=O)n(C)c2=O)c(OC)c1	-47	-0.9	-1	14%	-2
Fc1ccc(Br)cc1/C=N/n1cnnc1	-36	3.7	1	-4%	-21

The closing 3 records of the section above open the next one.
SMILES	YopH inh	RecA splice inh	Arbovirus anti	Mtb H37Rv	Mtb bLac sens	others
Nc1nc(SCc2ccccc2Cl)ns1	-22	0.8	-12	48%	95
COc1ccc(N=C(C)c2c(O)n(C)c(=O)n(C)c2=O)c(OC)c1	-47	-0.9	-1	14%	-2
Fc1ccc(Br)cc1/C=N/n1cnnc1	-36	3.7	1	-4%	-21
CN(C)c1ccc(Nc2c3c4c(cccc4n(C)c2=O)C(=O)c2ccccc2-3)cc1	-8	-0.6	-21	16%	8
CCOc1ccc(NC(=O)C2CCN(C(=O)C3CC(=O)N(c4ccc(C)cc4)C3)CC2)cc1 (centres undefined)	.	0.1	.	.	2
O=C(NCCc1ccccc1)C(=O)NCC1OCCCN1S(=O)(=O)c1cccs1 (centres undefined)	.	-1.5	.	.	1
CCOC(=O)c1ccccc1NC(=O)Nc1ccc(OC)c(OC)c1	-2	-0.5	1	1%	-9
CC(C)(C)c1ccc(OCCCNC2CCCC2)cc1	.	2.6	-11	6%	-3
O=C(c1cc(COc2ccc(F)cc2F)on1)N1C[C@H]2CC[C@H]1C2	.	2.0	.	.	?
O=C(O)CSCCn1cccn1	-32	-0.4	2	-8%	6
CCOC(=O)N1CCC(N2CCN(CCC(C)C)C(CCO)C2)CC1 (centres undefined)	.	-0.6	0	2%	-1
CCOC(=O)N1CCN(c2c(NCCN3CCCCC3CC)c(=O)c2=O)CC1 (centres undefined)	1	-10.0	7	0%	-9
CCOC(=O)Cc1csc(NC(=O)CC(C)(C)C)n1	0	0.8	6	6%	2
CCC(C)NC(=O)CC(C)C (centres undefined)	.	-0.7	.	-11%	1
COc1ccc2c(c1OC)C(=O)OC2c1c(O)n(Cc2ccc(F)cc2)c(=O)[nH]c1=O (centres undefined)	-25	-1.3	2	-4%	6
CC(C)N1CCN(Cc2ccsc2)CC1CCO (centres undefined)	.	0.0	-1	-6%	-11
Cc1nnc(SCc2cccc(CSc3nnc(C)s3)c2)s1	-18	8.2	-1	5%	-8
O=C(COc1ccc(S(=O)(=O)N2CCCC2)cc1Cl)NCc1ccccn1	.	-0.7	.	.	-12
Cc1cc(C)cc(OC(=O)c2cccnc2)c1	.	1.6	.	.	1
CCc1ccc(S(=O)(=O)Nc2ccc(N3CCN(C)CC3)cc2)cc1	.	0.4	.	-1%	0
O=C(OC(C(=O)NC1CCCCC1)c1ccccc1F)c1ccco1 (centres undefined)	.	0.6	.	.	-1
O=C(/C=C/c1cccs1)NC1CCCC1	.	-1.1	.	.	0
COc1ccc(/C=N/NC(=O)CNC(=O)c2ccc(S(=O)(=O)N3CCOCC3)cc2)cc1OC	-28	-4.8	10	-7%	-2
O=C(COc1ccccc1Cl)Nc1ccc(C(=O)N2CCCCC2)cc1	.	-0.5	.	.	25
O=C(NCc1cc(C(F)(F)F)cc(C(F)(F)F)c1)C1CC(c2ccccc2[N+](=O)[O-])=NO1 (centres undefined)	-35	-1.1	-2	5%	-2
O=C(COC(=O)CNC(=O)c1ccccc1)Nc1ccc(S(=O)(=O)N2CCCC2)cc1	.	4.9	22	4%	-4
NC1=NC(=Nc2ccc(S(N)(=O)=O)cc2)c2ccccc21	.	1.1	.	-2%	0

An excerpt from above in order of molar mass, rising.
SMILES	YopH inh	RecA splice inh	Arbovirus anti	Mtb H37Rv	Mtb bLac sens	others
CC(C)N1CCN(Cc2ccsc2)CC1CCO (centres undefined)	.	0.0	-1	-6%	-11
O=C(OC(C(=O)NC1CCCCC1)c1ccccc1F)c1ccco1 (centres undefined)	.	0.6	.	.	-1
O=C(COc1ccccc1Cl)Nc1ccc(C(=O)N2CCCCC2)cc1	.	-0.5	.	.	25

Next part:
SMILES	YopH inh	RecA splice inh	Arbovirus anti	Mtb H37Rv	Mtb bLac sens	others
COc1ccccc1CNc1ccccc1F	.	-0.5	-2	-3%	2
COCC(=O)NCCc1nc2ccccc2[nH]1	-19	1.4	6	-2%	2	Arbovirus anti repeat=-1
Cc1c(OC(C)C(=O)NCC(O)c2ccccc2)ccc2c3c(c(=O)oc12)CCC3 (centres undefined)	.	-1.6	.	.	3
CCOC(=O)C1=C(CN2CCN(C(=O)c3ccco3)CC2)NC(=O)NC1c1ccc(F)cc1 (centres undefined)	.	0.1	.	.	-3
Cc1noc(C)c1C(=O)Nc1ccc2c(c1)CCC2	-10	0.9	-1	-5%	-3
CCOc1ccc(NC(=O)C2CCN(S(=O)(=O)c3ccc4c(c3)C(C)(C)C(=O)N4C)CC2)cc1	.	-0.7	.	.	-2
COc1ccc(/C=C(\NC(=O)c2ccccc2)C(=O)N2CCN(C)CC2)cc1OC	.	-4.6	.	.	-1
NS(=O)(=O)c1ccc(CCNC(=O)CCCCCNc2nc(=S)[nH]c3ccccc23)cc1	-30	0.6	1	12%	4
CCOC(=O)C1=C(C)NC(=S)N(C(C)=O)C1c1ccc(OC)c(OC)c1 (centres undefined)	.	-0.8	.	2%	-10
CC1(C)Cc2nc(NC3CCCCC3)c(C#N)cc2CO1	.	6.2	5	2%	5
Cc1scc(-c2n[nH]c(=S)n2Cc2ccccc2)c1C	-9	4.6	4	8%	4
CN1CCN(S(=O)(=O)c2ccc3c(c2)oc(=O)n3C)CC1	.	-1.1	.	.	-5
NN=C1c2cc([N+](=O)[O-])ccc2-c2ccc([N+](=O)[O-])cc21	.	-2.1	-25	4%	.
O=C(Nc1cccc(C(=O)Nc2ccccc2F)c1)c1ccccc1	.	0.6	.	.	0
Cc1nc2scc(-c3ccccc3)c2c(=O)o1	-16	9.5	3	-8%	68
CCOC(=O)C1C(=O)OC(C)(C)C1C(CC)C(=O)c1ccccc1 (centres undefined)	.	-1.8	-1	-9%	4
COc1ccc(C(=O)N/C(=C/c2cccnc2)C(=O)N2CCCCCC2)cc1OC	.	1.9	.	.	3
Cc1ccccc1-n1c(C)cc(/C=C(\C#N)C(=O)NCC2CCCO2)c1C (centres undefined)	-11	3.7	0	4%	-2
Cc1cc(=O)[nH]c(N/N=C/c2c(C)nn(-c3ccccc3)c2C)n1	.	-0.7	-5	-4%	-1
COc1ccc(OC)c(NC(=O)CN(C)CC(=O)Nc2ccccc2Cl)c1	.	0.6	.	.	-5
CCCc1cc(=O)oc2cc(OCC(=O)NC(Cc3ccc(Cl)cc3)C(=O)O)ccc12 (centres undefined)	.	-1.3	.	.	2
Cc1cc(CN(C)C(=O)C2CCC(=O)N(CCc3ccccc3)C2)n[nH]1 (centres undefined)	.	2.5	.	.	1
CCOC(=O)Cc1nnc(NC(=O)c2ccccc2OC)s1	-5	2.2	7	2%	9
Oc1ccc(/C=N/Nc2ccccc2)cc1	.	1.6	-24	20%	64
CCCCOc1ccc(-n2nc(C)cc2C)nn1	-9	-5.4	-1	4%	-2
COc1ccc(NC(=S)Nc2ccccn2)c(OC)c1	-21	-2.9	-1	77%	44
CCOC(=O)c1nn(-c2ccccc2)c(=O)c2c(NC(C)=O)scc12	.	-6.2	-3	2%	-2
O=c1[nH]nc(-c2ccc(NCCO)c([N+](=O)[O-])c2)c2ccccc12	.	0.7	.	.	-7
Cc1cc(F)c(F)c(C(=O)N2CCN(C)CC2)c1Cl	-18	-1.7	5	.	-5
C=CCOc1ccc(C2NC(=O)c3ccccc3O2)cc1 (centres undefined)	.	-0.1	.	.	-4
NC1=NC2(CCCCC2)N(c2ccc(F)cc2)C(N)=N1	-6	3.3	-6	-4%	-10
Cc1ccc(OCCC(=O)OCC(=O)NC2CCS(=O)(=O)C2)cc1 (centres undefined)	.	-2.1	.	.	3
CCCn1c(SCC(=O)Nc2sc(C)c(C)c2C#N)nnc1C(C)C	-36	-4.1	16	-10%	0
CCOC(=O)CNC(=O)Cn1cnc2c(oc3ccccc32)c1=O	.	-3.0	.	.	-4
Cc1cccc(CCNC(=O)C2CCCN(S(=O)(=O)c3cnc[nH]3)C2)c1 (centres undefined)	4	.	17	-18%	-3
COc1ccc(C(=O)C2CCCN(Cc3cn(C)nc3-c3ccccc3)C2)cc1F (centres undefined)	.	-1.7	0	0%	1

5 compounds picked at random from those above, as already listed:
SMILES	YopH inh	RecA splice inh	Arbovirus anti	Mtb H37Rv	Mtb bLac sens	others
Cc1c(OC(C)C(=O)NCC(O)c2ccccc2)ccc2c3c(c(=O)oc12)CCC3 (centres undefined)	.	-1.6	.	.	3
NN=C1c2cc([N+](=O)[O-])ccc2-c2ccc([N+](=O)[O-])cc21	.	-2.1	-25	4%	.
CCOC(=O)C1C(=O)OC(C)(C)C1C(CC)C(=O)c1ccccc1 (centres undefined)	.	-1.8	-1	-9%	4
COc1ccc(/C=C(\NC(=O)c2ccccc2)C(=O)N2CCN(C)CC2)cc1OC	.	-4.6	.	.	-1
Cc1cc(NC(=O)c2cc(-c3ccccc3)on2)no1	8	0.0	-1	-4%	-1

(cont.)
SMILES	YopH inh	RecA splice inh	Arbovirus anti	Mtb H37Rv	Mtb bLac sens	others
C#CCOCCOCCOCCNc1nc(N2CCN(C(=O)Cn3cc(CCCN=C(N)N)nn3)CC2)nc(N2CCN(C(=O)[C@H](C)n3cc(CCCN=C(N)N)nn3)CC2)n1	-23	.	-7	-17%	-3
COc1ccc(-c2csc3ncnc(Nc4ccc(O)cc4)c23)cc1	.	4.0	-4	2%	-4
Cc1ccc(/C=N/n2c(-c3ccncc3)n[nH]c2=S)o1	.	-1.1	9	-3%	2
COc1ccc(C2C(C(=O)NCCN(C)C)c3ccccc3C(=O)N2C)cc1OC (centres undefined)	-48	4.1	-6	-10%	-3	Arbovirus anti repeat=2
CCOc1ccc(N=C/C=C/c2ccccc2)c(O)c1	.	-1.6	.	0.94µM*	94

Four neighbouring entries already listed, for reference:
SMILES	YopH inh	RecA splice inh	Arbovirus anti	Mtb H37Rv	Mtb bLac sens	others
COc1ccc(-c2csc3ncnc(Nc4ccc(O)cc4)c23)cc1	.	4.0	-4	2%	-4
Cc1ccc(/C=N/n2c(-c3ccncc3)n[nH]c2=S)o1	.	-1.1	9	-3%	2
COc1ccc(C2C(C(=O)NCCN(C)C)c3ccccc3C(=O)N2C)cc1OC (centres undefined)	-48	4.1	-6	-10%	-3	Arbovirus anti repeat=2
CCOc1ccc(N=C/C=C/c2ccccc2)c(O)c1	.	-1.6	.	0.94µM*	94

Some of the compounds tested; count on the stated rates, not on these rows.
